Sa growth 42C – inhibitors of Staphylococcus aureus growth at 42 °C | S. aureus RN4220 growth, OD600, 20 h; active compounds read low | relative growth, % (test concentration not listed) | 0.53% of 170,000 active | AID 720641;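 active means growth at 42 °C up to 50% and 20 or more points under that at 30 °C, or under 10% at both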;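 further: 300 nL library stock went into each well; scaled to the means of positive and negative controls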
GIV Gai3 FP – blocks GIV peptide binding to rat Galpha-i3. Galpha-i3/FITC-GIV peptide fluorescence polarization, 90 min; active compounds read low; scaled: aluminum fluoride 0%, vehicle 100%. percent of control (FP), % (test concentration not listed). 0.42% of 210,000 active;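 active means replicate mean at 85% of control or lower, very high polarization wells dropped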;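 further: lower values mean more displacement of the GIV peptide from Galpha-i3; wells of about 15 µL received 100 nL stock; the first replicate is given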
Target sequence (P08753 whole entry, looked up): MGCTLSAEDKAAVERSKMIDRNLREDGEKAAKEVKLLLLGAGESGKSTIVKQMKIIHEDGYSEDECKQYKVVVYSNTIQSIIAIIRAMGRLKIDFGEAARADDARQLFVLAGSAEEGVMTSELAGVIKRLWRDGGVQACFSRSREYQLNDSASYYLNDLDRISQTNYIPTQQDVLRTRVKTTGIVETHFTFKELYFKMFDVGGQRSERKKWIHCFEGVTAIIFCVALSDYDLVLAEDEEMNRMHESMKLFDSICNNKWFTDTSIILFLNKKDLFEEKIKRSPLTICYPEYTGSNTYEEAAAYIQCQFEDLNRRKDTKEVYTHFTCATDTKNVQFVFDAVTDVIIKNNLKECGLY
HCMV NEC inh – inhibitors of HCMV UL50-UL53 nuclear egress complex interaction; HTRF UL50-UL53 interaction, normalized percent inhibition; AID 1918969; inhibition, % (concentration not given with the values); 0.15% of 190,000 active;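 active means both replicates at 50% or more, plus weaker picks with an unusually low signal ratio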;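 further: stock transfer was 100 nL into about 20 µL; 0% = negative control wells and 100% = wells with untagged competitor protein; inactives centre near -12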
Sa growth 42C second temp – second read-out of Sa growth 42C, no call of its own (marks repeat the call); relative growth, %; measured here: growth at 30 °C;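 optical density after 20 h as mean of two plates; 100% = untreated growth and lower means inhibition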
* = called active by the depositor; · = no result given; & = joins results of further samples.

Value order – Sa growth 42C	Sa growth 42C second temp	GIV Gai3 FP	HCMV NEC inh
> CNC(=S)NCc1cccnc1
 : 98	84	99	-20
> Cc1cccc(-n2c(CNC(=O)COc3ccc(Cl)cc3)n[nH]c2=S)c1
 : 87	87	99	-27
> COc1ccc(C2=NOC(C(=O)Nc3ccc(C)cc3)C2)cc1 (stereo not given)
 : 109	92	104	·
> O=C1C(=O)N(C2CCN(C(=O)c3ccc(Cl)cc3)CC2)CCN1Cc1ccccc1
 : ·	·	102	-21
> O=C(NCc1ccccc1)C(Cc1ccccc1)N1C(=O)c2ccccc2C1=O (stereo not given)
 : 118	78	110	·
> Cc1ccc(C)c(Cn2cccc2CNC(=O)NCC2CCCO2)c1 (stereo not given)
 : ·	·	101	-21
> Cc1ccccc1CSc1nnc(-c2ccccc2Cl)o1
 : ·	·	95	-18
> NC1(C2CCCCC2=O)CCCCC1 (stereo not given)
 : 113	92	102	-26
> Cc1ccc(C(=O)c2cc3ccccc3o2)cc1C
 : 90	89	105	-16
> Oc1ccccc1Oc1c(F)c(F)nc(N2CCOCC2)c1F
 : 61	13	103	-26
> CCn1c(=O)c2sccc2n2c(SCc3cccc(Br)c3)nnc12
 : ·	·	100	-22
> Cc1cc(=O)c2cc(Br)ccc2[nH]1
 : 92	110	100	-7
> CCc1cccc(C)c1Nc1c(-c2ccc(N(C)C)cc2)nc2cnccn12
 : 89	73	148	-17
> CCCNC(=O)CCc1c(C)nc2nc(NCc3ccc(C)cc3)[nH]n2c1=O
 : ·	·	102	8
> O=C(/C=C/c1cn(-c2ccccc2)nc1-c1cc2ccccc2o1)Nc1nc2ccccc2[nH]1
 : 120	88	·	-19
> CCCc1cnc2c(c1SCC(=O)Nc1ccccc1F)c(=O)n(C)c(=O)n2C
 : 100	92	107	·
> Nc1cc(-c2ccccn2)[nH]n1
 : 106	81	103	-10
> O=c1c2sccc2n2c(SCc3ccccc3F)nnc2n1Cc1ccccc1
 : ·	·	101	-12
> CC(C)OC(=O)CSc1nnc(-c2ccc(N(C)C)cc2)o1
 : 94	86	110	3
> Cn1ccnc1Sc1cnc(=S)[nH]c1-c1ccc(Cl)cc1
 : 79	72	105	-19

The last 5 entries of the part before open the next one:
Value order – Sa growth 42C	Sa growth 42C second temp	GIV Gai3 FP	HCMV NEC inh
> CCCc1cnc2c(c1SCC(=O)Nc1ccccc1F)c(=O)n(C)c(=O)n2C
 : 100	92	107	·
> Nc1cc(-c2ccccn2)[nH]n1
 : 106	81	103	-10
> O=c1c2sccc2n2c(SCc3ccccc3F)nnc2n1Cc1ccccc1
 : ·	·	101	-12
> CC(C)OC(=O)CSc1nnc(-c2ccc(N(C)C)cc2)o1
 : 94	86	110	3
> Cn1ccnc1Sc1cnc(=S)[nH]c1-c1ccc(Cl)cc1
 : 79	72	105	-19
> CCCCc1nnc(NC(=O)Nc2ccc(C)cc2)s1
 : 91	93	96	·
> CCCCN(CC)c1ncc(NS(C)(=O)=O)cc1C(=O)O
 : ·	·	107	-42
> O=S1(=O)N=C(N2CCNCC2)c2ccccc21
 : 104	92	·	-16
> CC1(C(=O)NC2CCCC2)Cn2c(ccc2-c2ccccc2)C(=O)N1CCCc1ccccc1 (stereo not given)
 : ·	·	96	-7
> COc1ccc(-c2cc(C(C)=O)c(C)n2CCC(=O)NCc2ccccc2OC)cc1
 : 94	93	100	·
> Cc1ccc(-c2nc(C)c(CCNC(=O)c3ccccc3Br)s2)cc1
 : 106	86	102	·
> CCCN1CCN(c2cc(C(=O)O)c3cc(NS(=O)(=O)c4c(C)cc(C)cc4C)ccc3n2)CC1
 : ·	·	100	-36
> N#Cc1ccccc1NC(=O)CN1CCCC1
 : 101	101	99	1
> Cc1ccc(C)c(CN2C(=O)C(C(C)C(=O)NCc3ccc4c(c3)OCO4)Sc3ccccc32)c1 (stereo not given)
 : 84	92	104	·
> Cc1ccc(C(=O)NCCn2ccc3ccccc32)cc1
 : 97	80	94	·
> N#C/C(=C/c1ccc(Cl)cc1Cl)c1nc2ccccc2c(=O)[nH]1
 : 101	95	106	-22
> CCOc1ccc(OCC)c(NC(=O)c2nnn(CC(=O)Nc3ccc(C)cc3C)c2N)c1
 : 101	91	103	-17
> O=C1C(NS(=O)(=O)c2ccccc2)=C/C(=N\S(=O)(=O)c2ccc(F)cc2)c2ccccc21
 : 81	31	92	·
> O=C(CCC(=O)c1ccc2c(c1)OCCCO2)OCc1nc2ccccc2o1
 : 95	95	·	0
> CCCNc1nc(Cl)nc(NCC(=O)OCC)n1
 : 96	107	108	2
> Cc1nc(-c2ccc(F)cc2)sc1CCNC(=O)c1ccc(Br)cc1
 : ·	·	103	-15
> COc1ccccc1N1CCN(c2cc(C)nc3c(-c4ccc(Cl)cc4)c(C)nn23)CC1
 : 138	88	103	·
> O=C=NC(Cl)(c1ccccc1)C(F)(F)F (stereo not given)
 : 103	90	·	2
> Cc1cc2cc(CNC(=O)C34CC5CC(CC(C5)C3)C4)ccc2[nH]1
 : 94	81	98	·
> CC1CCC(NC(=O)c2ccc(CS(C)(=O)=O)cc2)CC1 (stereo not given)
 : 105	94	·	2
> C/C(N)=C(/C#N)C(=O)CSc1cccc(C(F)(F)F)c1
 : 89	88	·	0
> CCc1ccc(C(=O)COC(=O)C(NC(=O)C2CCC(C)CC2)C(C)C)cc1 (stereo not given)
 : 107	92	105	-20
> CC(C)N(C(=O)COc1ncnc2ccc(Br)cc12)C(C)C
 : 95	85	·	-16
> COc1ccccc1CNC(=O)c1ccc2c(c1)CCN2S(=O)(=O)c1ccccc1
 : 105	97	104	-17
> O=c1[nH][nH]c(=S)n1-c1cccc(F)c1
 : 93	81	103	-25
> COc1ccc(CCNc2cc(C)nc3c(-c4ccc(F)cc4)c(C(F)(F)F)nn23)cc1OC
 : ·	·	97	-12
> O=C(O)/C=C/C(=O)Nc1ccc(Br)c(Cl)c1
 : 98	91	101	3
> CCc1cccc(C)c1NS(=O)(=O)c1ccc(-c2cc(C)no2)s1
 : 97	92	105	·
> O=C(NC(Cc1cc(=O)[nH]c2ccccc12)C(=O)O)c1ccc(Cl)cc1 (stereo not given)
 : 88	88	101	-34&-9
> Cc1ccc(OCCSc2nnc(N)s2)cc1
 : 71	94	·	-12
> COc1ccc(NC(=O)C(=O)NCC2(c3ccc(OC)c(OC)c3)CCCC2)cc1
 : 97	91	103	1
> Cc1nnc(Nc2c(C)n(C)n(-c3ccccc3)c2=O)[nH]c1=O
 : 104	89	102	-23
> COc1ccccc1C(=O)Nc1c(C(=O)N2CCN(c3ccc(F)cc3)CC2)oc2ccccc12
 : 101	95	104	·
> O=C(Cc1coc2cc3c(cc12)CCC3)OCC(=O)N1CCCC1=O
 : 118	99	·	9
> CN1CCN(c2nc(C34CC5CC(CC(C5)C3)C4)cs2)CC1
 : -0.9*	-0.6*	·	0
> O=C(CCN(CCCN1CCOCC1)C(=O)c1ccc(Br)cc1)N1CCNCC1
 : ·	·	96	7
> C=CC(=O)NC(=O)NC12CC3CC(CC(C3)C1)C2
 : 68	86	·	-9
> Cc1ccc(-c2cn3cccnc3n2)cc1NC(=O)C(C)(C)Oc1ccc(Cl)cc1
 : 69	57	104	·
> CNC(=O)Cn1nc(C)c(S(=O)(=O)N2CCOCC2)c1C
 : 91	93	·	-8
> C#CCSc1nc2cc(Cl)ccc2o1
 : 108	96	·	2

Continued, starting with the last 4 of the part before.
Value order – Sa growth 42C	Sa growth 42C second temp	GIV Gai3 FP	HCMV NEC inh
> C=CC(=O)NC(=O)NC12CC3CC(CC(C3)C1)C2
 : 68	86	·	-9
> Cc1ccc(-c2cn3cccnc3n2)cc1NC(=O)C(C)(C)Oc1ccc(Cl)cc1
 : 69	57	104	·
> CNC(=O)Cn1nc(C)c(S(=O)(=O)N2CCOCC2)c1C
 : 91	93	·	-8
> C#CCSc1nc2cc(Cl)ccc2o1
 : 108	96	·	2
> COc1ccnc2c1c(=O)n(CC(=O)N1CCC(C)CC1)c(=O)n2C
 : ·	·	104	4
> Cc1c(C(=O)N2CCCC2)c(S(=O)(=O)NCC2CCCO2)c(C)n1C (stereo not given)
 : ·	·	102	-10
> Cc1noc(Nc2ccc(NC(=O)Cc3cccs3)cc2)c1C
 : 103	94	·	13
> Cc1cc(OC(C)C)nc(-c2ccccc2O)n1
 : 119	71	97	-3
> COC(=O)c1ccc(Oc2nc(Nc3ccccc3F)nc(N3CCCCC3C)n2)cc1 (stereo not given)
 : 105	82	104	·
> Cc1cc(C(=O)OCc2cc(Cl)cc3c2OCOC3)on1
 : 108	104	·	-9
> O=C(COc1ccccc1C(=O)O)Nc1cccc2ccccc12
 : 116	97	·	-27
> CC(Sc1nnnn1-c1ccc(O)cc1)C(=O)c1ccccc1 (stereo not given)
 : 110	81	·	-16
> O=C(CCS(=O)(=O)c1nc(-c2ccc3c(c2)OCO3)cc(C(F)(F)F)n1)Nc1ccc(Br)cc1
 : 119	89	104	-16
> O=C(Cn1ccc2cc(S(=O)(=O)N3CCCC3)ccc21)NCc1ccccc1
 : 98	99	108&98	-36&8

Pulled one by one from above (4):
Value order – Sa growth 42C	Sa growth 42C second temp	GIV Gai3 FP	HCMV NEC inh
> Cc1ccccc1CSc1nnc(-c2ccccc2Cl)o1
 : ·	·	95	-18
> COc1ccccc1CNC(=O)c1ccc2c(c1)CCN2S(=O)(=O)c1ccccc1
 : 105	97	104	-17
> COc1ccccc1N1CCN(c2cc(C)nc3c(-c4ccc(Cl)cc4)c(C)nn23)CC1
 : 138	88	103	·
> CCCNC(=O)CCc1c(C)nc2nc(NCc3ccc(C)cc3)[nH]n2c1=O
 : ·	·	102	8

The list continues:
Value order – Sa growth 42C	Sa growth 42C second temp	GIV Gai3 FP	HCMV NEC inh
> CCOC(=O)N1CCC(NC(=O)c2cc(C(=O)NCc3ccc(F)cc3)ccc2CO)CC1
 : 108	89	102	·
> CCOc1ccc(S(=O)(=O)NCc2ccc3c(c2)OCO3)cc1
 : 108	95	101	-19
> Cc1cccc(/C(N)=N/O)c1
 : 106	92	104	-6
> CCCCN(CC)c1nc(N)c2c(N)nc(SCC(=O)O)cc2c1C#N
 : 6.2*	-0.4*	·	4
> CC(C)(C)C(=O)/C=C1\SCC(=O)N1Cc1ccc(C#N)cc1
 : 109	89	·	-1
> COC(=O)c1ccccc1NC(=O)CN1Cc2ccccc2C1=O
 : 104	97	104	0
> Cc1nn(Cc2ccccc2Cl)c2sc(C(=O)NC(C)(C)C)cc12
 : 96	94	·	-5
> COC(=O)c1cc(NC(=O)Cn2nc(-c3ccc(C)c(C)c3)ccc2=O)cc(C(=O)OC)c1
 : 109	90	108	-16
> COc1ccc(C(CC(=O)Nc2ccc(Br)cn2)N2Cc3ccccc3C2=O)cc1 (stereo not given)
 : 114	84	99	·
> CCOC(=O)c1cc2c(=O)n3ccccc3nc2n(C(C)C)c1=NC(=O)c1cc2ccccc2o1
 : 126	86	107	-28
> Cc1ccc(-c2nnc(N3CCOCC3)c3ccccc23)cc1S(=O)(=O)N1CCN(C)CC1
 : 94	87	101	-32
> CCn1nc(C)cc1-c1n[nH]c(=S)n1-c1ccccc1
 : 102	82	106	-28
> COC(=O)c1c(SCC(=O)Nc2cc(F)ccc2F)[nH]c2ccc(C)cc2c1=O
 : 90	100	104	·
> Cc1ccc2oc(=O)c(/C=C(\O)c3ccco3)nc2c1
 : 100	85	109	-24
> Cc1cccc(CCNC(=O)c2cc3c(=O)n(C)c4ccccc4c3s2)c1
 : 107	95	100	·
> CN(C)c1cccc(N(C)C)c1CNC(=O)C(C)(C)C
 : 109	90	103	-4
> CCOC(=O)c1ccc(-n2c(C)cc(C=C3C(=O)N(C)C(=S)N(C)C3=O)c2C)cc1
 : ·	·	113	-5
> Cc1ccc(Cl)cc1N(C)C(=O)c1noc2c1CCCCC2
 : 86	94	100	·
> Cc1cc2c(cc1C)N(CC(=O)NCc1cccs1)C(=O)C1CCCC1=N2 (stereo not given)
 : ·	·	111	-34
> COc1cc2c(C(=O)NCc3ccc4c(c3)OCO4)cn(C)c(=O)c2cc1OC
 : 94	88	100	-28
> Cc1cc(C(=O)O)ccc1-n1c(C)ccc1C
 : 83	48	97	34*

Limited to HCMV NEC inh, GIV Gai3 FP and Sa growth 42C, for some of the entries so far:
molecule | HCMV NEC inh | GIV Gai3 FP | Sa growth 42C
O=C(NC(Cc1cc(=O)[nH]c2ccccc12)C(=O)O)c1ccc(Cl)cc1 (stereo not given) | -34&-9 | 101 | 88
Cc1ccc(OCCSc2nnc(N)s2)cc1 | -12 | · | 71

Screening results: PubChem BioAssay, ICCB-Longwood Screening Facility, Harvard Medical School
